Bioassay records (PubChem)
Mtb hypoxia rep: reduces hypoxia-regulated biosensor signal in M. tuberculosis; M. tuberculosis hypoxia-regulated fluorescent reporter, fluorescence; hit rate 0.1% among 300,000; fluorescence inhibition, % (no concentration beside the values); AID 1159583;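 active = 35 to 45% if threefold the growth effect, above 45% if 1.5-fold the growth effect; inactive = the rest, general growth blockers included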;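 also: wells of about 50 µL received 100 nL stock; 0% = vehicle wells and 100% = reference inhibitor wells; whole bacteria with a GFP reporter of the hypoxia response; strong numbers were not always called active; many hits fall short of the cut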
PrP UTR inh: inhibition of PrP 5' UTR reporter expression; cell-based PrP 5' UTR mRNA reporter, plate reader; AID 488862; inhibition, % (no concentration beside the values); hit rate 0.35% among 340,000;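 active = every replicate at 50% or more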;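 also: 0 = median of the neutral control wells; tested in H4 reporter cells; numbers are from one replicate; inactives centre near -14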
Autofluor counter: counter-screen for toxin protease inhibitors: compound fluorescence; compound autofluorescence counterscreen, microsphere flow cytometry; active compounds read high; fluorescence intensity (no concentration beside the values); hit rate 3.1% among 360,000;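 active = at least 3 SD above the mean of all compounds, about 16000 in these data; inconclusive = too few beads counted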;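 also: 100 nL of 1 mM stock went into each well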
ugtP null kill: compounds lethal to S. aureus RN4220 ugtP deletion mutant; hit rate 0.54% among 330,000; growth inhibition, % (concentration not given with the values); AID 1259309; OD600 growth, 16 h; some inactives read as strong as hits;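 active = z-score under -3 and OD600 up to 0.15 on both plates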;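 also: plate controls were untreated wells for no effect and antibiotic for full effect; wells of about 80 µL received 100 nL stock; the first replicate is given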
BJeLR lethal: BJeLR cell viability loss. BJeLR (HRASV12) viability, CellTiter-Glo ATP luminescence, 48 h; reference of the scale not given here. hit rate 0.17% among 300,000. inhibition, % (concentration not given with the values). AID 1554;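 active = replicate mean above 50%; inconclusive = above 50% but judged a plate artefact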;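 also: 50 nL library stock added to about 25 µL; numbers are from one replicate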
Sa RN4220 lethal: S. aureus RN4220 growth inhibition | OD600, 16 h | inhibition, % (test concentration not listed) | hit rate 0.33% among 330,000 | AID 1259311;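 active = z-score of -3 or lower and OD600 up to 0.18 on both plates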;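 also: plate controls were untreated cells for no effect and reference antibiotic for full effect; stock transfer was 100 nL into about 80 µL; one replicate is shown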
Mtb hypoxia rep growth: recorded beside Mtb hypoxia rep, whose call it bears; growth inhibition, %; measured here: M. tuberculosis growth (absorbance);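 0% = vehicle and 100% = reference antibiotic; read after six days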
* marks the source's active call; other numbers are inactive results; ? = inconclusive; / = not tested or not shown; & = joins results of further samples.

SMILES | Mtb hypoxia rep | Mtb hypoxia rep growth | PrP UTR inh | Autofluor counter | ugtP null kill | BJeLR lethal | Sa RN4220 lethal
CCN(Cc1ccccc1)S(=O)(=O)c1nc2nc(C)c(C)c(C)n2n1 | 7 | -1 | -17 | 17154* | 1 | 5 | 5.0
O=C(Cn1cc(C(=O)c2cccs2)c2ccccc21)NCc1ccc2c(c1)OCO2 | 8 | 12 | 1 | 5253 | -21 | -6 | -0.3
COc1cccc(OC)c1C1=NCC(=O)Nc2c1oc1ccc(Br)cc21 | 0 | -1 | 49 | 5497 | 14 | 31 | 41
CCC(C(=O)NCc1ccc(C)o1)n1nc(C)c2c(C)n(-c3ccccc3)nc2c1=O (configuration not stated) | 11 | 1 | -4 | 4108 | 5 | -2 | -2.1
CC(C)NC(=O)NNC(=O)c1nn(-c2ccc(F)cc2)ccc1=O | 14 | 17 | 2 | 6374 | -2 | 5 | 3.3
CC(=O)/C(=N\Nc1ccccc1Cl)Sc1cccc2cccnc12 | / | / | -44 | 9653 | / | -2 | /
COc1cc(C(c2c(C)[nH][nH]c2=O)c2c(C)[nH][nH]c2=O)cc(Br)c1OC | 14 | 3 | -55 | 4407 | 3 | -12 | 6.5
CC(=O)n1cc(C2C=C(C(=O)N3CCOCC3)OC(OCc3ccc(CO)cc3)C2)c2ccccc21 (configuration not stated) | 2&-12 | 0&-14 | / | / | 5&0 | / | 7.8&2.4
Oc1cc2ccccc2cc1-c1n[nH]c(=S)o1 | 5 | 2 | -13 | 3673 | 7 | -3 | 37
COc1ccccc1-c1cc(C(F)(F)F)nc(S(=O)(=O)CCCC(=O)N2CCCCC2C)n1 (configuration not stated) | / | / | -4 | 2993 | 14 | -6 | -1.9
Cc1ccc(S(=O)(=O)N2CCOCC2)cc1C(=O)NC1CCCC1 | 5 | 10 | -16 | 5305 | 10 | -5 | -1.9
CCN(CC)CCN1c2ccccc2Sc2ccc3ccccc3c21 | 2 | -2 | -15 | 4503 | -1 | 4 | 2.7
ON=CC1=C(Cl)c2ccccc2CC1 | 7 | 8 | / | / | 4 | / | 16
COc1ccc(C2c3c(ccc4ccccc34)Oc3ncn4nc(-c5ccco5)nc4c32)cc1OC (configuration not stated) | 2 | -3 | -16 | 2071 | 12 | 4 | 2.6
CC(=NNC(=O)CNC(=O)Cc1ccccc1)c1ccco1 | 9 | 8 | / | / | 3 | / | 3.0
Cc1ccc(OCCSc2nnc(NC(=O)c3ccco3)s2)cc1 | / | / | 6 | 4368 | 8 | -10 | -0.5
COC(=O)c1c(-c2ccc(F)cc2)csc1NC(=O)c1ccco1 | -15 | 11 | -93 | 3040 | 11 | -1 | 17
CCn1c(Cn2nnc(-c3ccccc3)n2)nnc1SCc1ccc(Cl)c(Cl)c1 | / | / | -15 | 2774 | -11 | 1 | -11
COC(=O)[C@]1(C)NC(c2ccc(SC3CCCCC3)cc2)C2C(=O)N(C)C(=O)C21 (some centres not stated) | -4 | -5 | / | / | -5 | / | -0.6
COc1ccc(C(N)=S)c(OC)c1 | -5 | 6 | -7 | 2412 | -7 | 5 | -6.1
CCc1ccc(/C=N/NC(=O)c2c[nH]c3ccccc23)s1 | / | / | -46 | 1985 | / | 7 | /
COc1ccc(C(=O)N/N=C/c2ccc(OC)c(CN3CCN(c4ccc(F)cc4)CC3)c2)cc1 | / | / | -17 | 9029 | / | 1 | /
Cc1ccc(N(C(=O)c2csnn2)C(C(=O)NC(C)(C)C)c2ccncc2)cc1 (configuration not stated) | -1 | -2 | -7 | 8069 | 4 | 15 | 5.2
O=[N+]([O-])c1cc(-c2ccc(C=Nn3cnnc3)o2)ccc1Cl | 0 | 4 | / | / | 3 | / | -0.7
COc1ccccc1/C=C/c1onc(C)c1S(=O)(=O)N1CCC(C(=O)NC2CCCCCC2)CC1 | -6 | 2 | -11 | 5501 | 1 | -5 | -0.1
CCOC(=O)C(=CNc1cc(Cl)c(-c2ccco2)c(Cl)c1)C(=O)OCC | 9 | -2 | -36 | 4271 | -3 | 0 | -9.9
Cc1nnc(SCC(=O)N2CCC(C(N)=O)CC2)s1 | -4 | -1 | -18 | 3267 | 2 | 1 | 5.6
CCc1ccc2nc(N(CCCN(C)C)C(=O)c3ccc(S(=O)(=O)N4CCc5ccccc5C4)cc3)sc2c1 | / | / | 11 | ? | / | 4 | /
Cc1nnn(C23CC4CC(CC(C(=O)NN)(C4)C2)C3)n1 | 5 | 0 | -13 | 3956 | 3 | 7 | 5.3
O=C(COC(=O)CCOc1ccccc1)Nc1ccc(Cl)cn1 | / | / | -16 | 2322 | -1 | 5 | -1.0

Record cards, as listed above. Screens in order: Mtb hypoxia rep	Mtb hypoxia rep growth	PrP UTR inh	Autofluor counter	ugtP null kill	BJeLR lethal	Sa RN4220 lethal
Oc1cc2ccccc2cc1-c1n[nH]c(=S)o1 across the screens: 5	2	-13	3673	7	-3	37
ON=CC1=C(Cl)c2ccccc2CC1 across the screens: 7	8	/	/	4	/	16
CCC(C(=O)NCc1ccc(C)o1)n1nc(C)c2c(C)n(-c3ccccc3)nc2c1=O (configuration not stated) across the screens: 11	1	-4	4108	5	-2	-2.1
CC(=O)/C(=N\Nc1ccccc1Cl)Sc1cccc2cccnc12 across the screens: /	/	-44	9653	/	-2	/
CCc1ccc2nc(N(CCCN(C)C)C(=O)c3ccc(S(=O)(=O)N4CCc5ccccc5C4)cc3)sc2c1 across the screens: /	/	11	?	/	4	/

(listing goes on)
SMILES | Mtb hypoxia rep | Mtb hypoxia rep growth | PrP UTR inh | Autofluor counter | ugtP null kill | BJeLR lethal | Sa RN4220 lethal
CCC(C)N(C(=O)COc1ccccc1C(=O)NCc1ccccc1)C1CCS(=O)(=O)C1 (configuration not stated) | 12 | 14 | -12 | 6597 | 3 | -3 | 0.4
COc1cc2c(cc1OC)C(c1ccccc1F)NCC2 (configuration not stated) | 5 | 6 | -24 | 4084 | 12 | -3 | 3.7
COc1cccc(-c2nn(-c3ccccc3)cc2CN2CCCO2)c1 | -7 | -5 | -10 | 2506 | -4 | 0 | 0.1
Cc1ccccc1-c1cccc([C@@H]2C[C@H]3CN(Cc4cccnc4)C(=O)[C@]34CCCN24)c1 | 2 | 18 | -16 | 6557 | -6 | 0 | 2.2
COc1ccc(CC(=O)Nc2ccc(C)cc2O)cc1S(=O)(=O)N1CCOCC1 | -6 | 1 | -10 | ? | 0 | -6 | -1.1
CSc1ccc(C(c2c(C)[nH][nH]c2=O)c2c(C)[nH][nH]c2=O)cc1 | / | / | -24 | 2991 | / | -5 | /
NC(=O)N(CCC(=O)O)c1ccccc1 | 9 | 6 | -37 | 2326 | 7 | -2 | 2.8
CCc1ccc(Nc2nnc(SCC(=O)Nc3cccnc3Cl)s2)cc1 | -4 | -7 | -36 | 11454 | -23 | 6 | -8.8
O=C(O)C/C(=C\c1ccc2c(c1)OCO2)c1nc2ccccc2s1 | 10 | 1 | -21 | 4004 | -13 | 4 | 5.4
CCC1(c2ccccc2)NC(=O)N(CC(=O)N(CC(=O)Nc2ccccc2C(F)(F)F)Cc2ccco2)C1=O (configuration not stated) | -8 | 3 | 5 | ? | -2 | -2 | -2.5
CC(=O)N1CCc2cc(Br)cc(S(=O)(=O)NCCCN(C)Cc3ccccc3)c21 | 17 | 4 | -25 | 4152 | 7 | -1 | 1.2
CC(=O)Nc1cccc(C(=O)NCCc2ccco2)c1 | -5 | 2 | -29 | 3676 | 1 | -5 | 1.7
CCOc1ccc(N(CC(=O)NC2CCCCCC2)S(=O)(=O)c2c(C)noc2C)cc1 | / | / | -13 | 4964 | 9 | 2 | 3.6
CN(C)Cc1c(-c2ccc(Cl)cc2)nc2ccc(Cl)cn12 | -2 | 8 | -2 | 2002 | -6 | -3 | -2.1
COc1ccc2oc(C)c(C(=O)c3ccc(C)cc3)c2c1 | 7 | -3 | -36 | 3931 | 6 | 2 | -3.1

6 records picked at random from those above:
SMILES | Mtb hypoxia rep | Mtb hypoxia rep growth | PrP UTR inh | Autofluor counter | ugtP null kill | BJeLR lethal | Sa RN4220 lethal
COc1ccc2oc(C)c(C(=O)c3ccc(C)cc3)c2c1 | 7 | -3 | -36 | 3931 | 6 | 2 | -3.1
O=C(Cn1cc(C(=O)c2cccs2)c2ccccc21)NCc1ccc2c(c1)OCO2 | 8 | 12 | 1 | 5253 | -21 | -6 | -0.3
Cc1ccccc1-c1cccc([C@@H]2C[C@H]3CN(Cc4cccnc4)C(=O)[C@]34CCCN24)c1 | 2 | 18 | -16 | 6557 | -6 | 0 | 2.2
CCN(CC)CCN1c2ccccc2Sc2ccc3ccccc3c21 | 2 | -2 | -15 | 4503 | -1 | 4 | 2.7
CCOC(=O)C(=CNc1cc(Cl)c(-c2ccco2)c(Cl)c1)C(=O)OCC | 9 | -2 | -36 | 4271 | -3 | 0 | -9.9
Oc1cc2ccccc2cc1-c1n[nH]c(=S)o1 | 5 | 2 | -13 | 3673 | 7 | -3 | 37

(cont.)
SMILES | Mtb hypoxia rep | Mtb hypoxia rep growth | PrP UTR inh | Autofluor counter | ugtP null kill | BJeLR lethal | Sa RN4220 lethal
COCCn1c(C)cc(C(=O)CN2c3cccc4cccc(c34)S2(=O)=O)c1C | 7 | 7 | -26 | 3888 | 1 | / | 4.4
Oc1cc(O)c2c(c1)OC(c1ccc(O)c(O)c1)C(O)C2 (configuration not stated) | 4&9 | 7&-7 | -18 | 6075 | -1&1 | / | 6.8&4.4
CCN(CC)S(=O)(=O)c1cc(NC(=O)CN2C(=O)NC(C)(c3ccccc3)C2=O)ccc1C (configuration not stated) | 7 | 13 | -15 | 3835 | -6 | 8 | -2.2
CCOc1ccc(N/C(=N/c2nc(C)cc(C)n2)NC(C)=O)cc1 | / | / | 2 | ? | / | 0 | /
CCOC(=O)C(=NNc1ccc(OC)cc1)c1csc(Nc2ccccc2)n1 | 6 | 2 | / | / | -4 | / | 23
CCN(C[C@H]1N[C@@](CC)(C(=O)OC)[C@H]2C(=O)N(C)C(=O)[C@@H]12)C(=O)Nc1ccccc1 | 1 | 2 | -19 | 3578 | 2 | / | -0.7
Cc1csc(SCC(=O)Nc2sccc2C(N)=O)n1 | -6 | 5 | -25 | 3353 | 0 | 8 | 0.5
COc1cccc(CN2CCN(C(=O)c3cc(-c4ccncc4)nc4ccc(C)cc34)CC2)c1 | 2 | 12 | -13 | 5059 | -3 | 4 | -1.3
CCc1ccccc1N1C(=O)c2ccccc2S1(=O)=O | 12 | 6 | -8 | 1892 | 11 | -5 | -3.8
O=C(CSc1nc2ccccc2c(=O)[nH]1)Nc1ccccc1O | 3 | -1 | -3 | 3913 | 9 | 10 | 4.5
CCOCCCN(C)C1CCN(C(=O)c2oc3ccccc3c2NC(=O)c2cccc([N+](=O)[O-])c2)CC1 | 14 | 5 | -5 | 4244 | 4 | -7 | -1.1
COCC(=O)NC1CCCCCC1 | / | / | -9 | 4701 | 7 | -9 | 2.9
COc1cc(S(=O)(=O)NC2CC(C)(C)NC(C)(C)C2)c(OC)cc1Cl | / | / | -37 | 3828 | / | 4 | /
COC(=O)C(CCSC)NC(=O)c1cccc([N+](=O)[O-])c1 (configuration not stated) | 3 | -5 | -22 | 11410 | 9 | / | 1.9
CNC(=O)c1ccccc1Nc1ccc(SC(F)F)cc1 | -7 | -8 | -30 | 3971 | 7 | 5 | 0.1
O=C(NC(C(=O)NN=Cc1cccc2ccccc12)c1n[nH]c(=O)c2ccccc12)c1ccccc1 (configuration not stated) | -2 | 4 | / | / | -6 | / | -3.2
COc1ccc(CNC(=O)CN(Cc2ccccc2F)C(=O)c2csnn2)cc1 | 2 | -3 | 27 | 3046 | 2 | -1 | -0.7
CCc1ccc(C(=O)/C=C/c2ccc([N+](=O)[O-])o2)cc1 | / | / | -6 | 3443 | 60 | 59* | 24
COc1ccccc1-n1c(SCC(=O)N2CCCC2)nnc1-c1ccccc1 | 9 | -5 | -7 | 4829 | -10 | -8 | 1.3
CC(OC(=O)CN1C(=O)NC2(CCCC2)C1=O)C(=O)c1ccccc1 (configuration not stated) | -3 | 9 | 1 | ? | 2 | -7 | 2.4
CC(C)[C@H](NC(=O)NC1CCCC1)C(=O)O | 13 | 3 | -15 | 3334 | 2 | -10 | -6.2
CCOc1cc(C(=O)N2CCN(c3ccc(C(C)=O)cc3)CC2)cc(OCC)c1OCC | / | / | / | 11299 | 1 | -6 | 1.7
CCOC(=O)N1CCN(C(=O)COc2cccc3c2CCN(CC)C3=O)CC1 | 6 | 13 | -19 | 3667 | 2 | 7 | 3.4
COc1ccc(C(C)=O)cc1Cn1c(=O)cc(C)[nH]c1=O | 3 | 5 | -18 | 3715 | 4 | -4 | 3.9
